Screens deposited in PubChem by National Center for Advancing Translational Sciences (NCATS).
Resorufin fluor: resorufin region autofluorescence. Compound fluorescence, resorufin region 547/598 nm, buffer; active compounds read high. max dye-equivalent concentration, M. 59,000 compounds, 0.04% hits; active = above 10 nM dye equivalent; inconclusive = 1 to 10 nM; inactive = 1 nM or less; a few of its hits are not listed in these tables; further: highest value over a series up to 38 µM
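Read-out: intrinsic compound fluorescence at ex 547/em 598 nm after 15 min at RT in pH 8.0 Tris (100 mM). Values expressed as resorufin-equivalent concentration from per-plate standard series.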
A647 autofl: compound fluoresces in the A647 spectral region; Compound fluorescence, A647 channel (570/671 nm), Tris buffer; max dye-equivalent concentration, M; 59,000 tested, under 10 active; AID 592; active means above 1 µM dye equivalent; inconclusive means 0.1 to 1 µM; inactive means 0.1 µM or less;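 further: values scaled relative to a standard on each plate; highest value over a series up to 38 µM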
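Each compound's intrinsic fluorescence at 570 nm excitation and 671 nm emission is measured across its concentration series in 100 mM Tris, pH 8.0, after 15 min at room temperature, and reported relative to an A647 curve.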
AID923: qHTS Assay for Allosteric/Competitive Inhibitors of Caspase-1: Spectroscopic Profiling in AFC Spectral Region; compound fluorescence, AFC spectral region (405/520 nm); almost no hit is shown here; Potency, µM (doses to about 57.5 µM), inactives show at the top dose fluorescence increase, most hits filed as activators; 75,000 compounds, 1.1% hits; AID 923, 2007; active means well fitted activation curve with a large enough effect; inconclusive means small, poorly fitted or top-dose-only effect;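 further: potency means the concentration at half of the fitted maximal effect; 0% is about no effect; scaled to a free AFC standard on each plate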
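Titrations up to 57 uM read every 20 sec for 3 min (405/520 nm) with 50 nM caspase 1 and 5 uM Ac-WEHD-AFC, pH 7.5 HEPES buffer. Fluorescence-vs-time intercept gave baseline, scaled against on-plate AFC standard.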
TSHR ag: agonists of human thyroid stimulating hormone receptor. P16473. HEK293-CNG-TSHR cells (CNG channel as cAMP sensor), membrane potential dye, cAMP. Potency, µM (highest dose often 57.1 µM), inactives show top-dose activation, actives largely listed as activators. 73,000 compounds, 0.48% hits; active = well fitted activation curve of enough size with the parental cells flat; inconclusive = any curve in the parental cells; inactive = parental cells flat and receptor cells flat or falling; further: potency means the concentration at half of the fitted maximal effect; % of control where 0% means no effect; weak receptor curves with flat parental cells got no call and are not listed
Target sequence (P16473 whole entry, looked up): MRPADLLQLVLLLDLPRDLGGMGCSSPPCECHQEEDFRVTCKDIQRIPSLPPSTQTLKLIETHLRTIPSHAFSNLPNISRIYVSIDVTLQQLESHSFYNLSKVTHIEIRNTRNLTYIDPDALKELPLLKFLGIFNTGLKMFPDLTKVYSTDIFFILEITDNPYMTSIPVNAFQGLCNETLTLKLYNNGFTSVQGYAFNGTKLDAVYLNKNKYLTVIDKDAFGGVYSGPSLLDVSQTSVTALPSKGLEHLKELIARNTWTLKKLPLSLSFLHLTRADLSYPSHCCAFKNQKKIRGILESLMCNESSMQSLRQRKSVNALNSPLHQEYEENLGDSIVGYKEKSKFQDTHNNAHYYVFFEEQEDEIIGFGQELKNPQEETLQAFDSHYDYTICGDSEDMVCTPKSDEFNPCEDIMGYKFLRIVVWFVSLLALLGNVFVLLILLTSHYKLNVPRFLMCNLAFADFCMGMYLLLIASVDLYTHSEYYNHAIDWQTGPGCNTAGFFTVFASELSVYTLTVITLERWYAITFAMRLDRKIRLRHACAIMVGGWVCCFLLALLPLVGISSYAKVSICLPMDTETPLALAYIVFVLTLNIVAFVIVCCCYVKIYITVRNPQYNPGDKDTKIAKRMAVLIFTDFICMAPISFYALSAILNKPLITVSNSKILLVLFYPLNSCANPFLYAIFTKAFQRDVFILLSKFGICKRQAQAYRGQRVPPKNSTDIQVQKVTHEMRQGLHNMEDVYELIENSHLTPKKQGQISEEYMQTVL
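HEK 293 cells stably expressing TSHR and a modified CNG channel, with CNG-only parental cells as counterscreen, were preloaded 60 min at room temperature with membrane potential dye containing 100 uM RO 20-1724. Compound exposure was 30 min, and depolarization was read as fluorescence at 590 nm.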
A488 autofl: A488 region autofluorescence | max dye equivalency, M | compound autofluorescence, A488 spectral region, dye equivalency; active compounds read high | 59,000 compounds, 0.1% hits; active = above 10 nM dye equivalent; inconclusive = 1 to 10 nM; inactive = 1 nM or less; about half of its hits are not listed in these tables;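 further: highest value over a series up to 38 µM; compound alone in buffer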
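Compound autofluorescence was read in 100 mM Tris pH 8.0 after 15 min at room temperature, ex 480 nm/em 540 nm. Intensities were converted to A488 dye-equivalent concentration using an on-plate six-point A488 standard curve.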
* marks the source's active call; other numbers are inactive results; i = inactive; ? = inconclusive; nt = not tested or not shown; & = joins results of further samples; [ ] = remark or other dose.

SMILES	Resorufin fluor	A647 autofl	AID923	TSHR ag	A488 autofl
CC1CCc2nc(NC(=O)CN3CCN(c4ccccc4)CC3)sc2C1 (stereo not drawn)	i	1e-09	1.6%	10%	i
COc1ccc(CCNC(=O)C2CCN(Cc3nc(-c4ccccc4C)oc3C)CC2)cc1OC	i	2.8e-08	0.8%	6%	i
CCC(c1nnc(SCc2nc3ccccc3s2)n1Cc1ccccc1)N(C)C (stereo not drawn)	i	4.2e-08	1.7%	?	i
COc1ccc(S(=O)(=O)CCC(=O)Nc2c(C)n(C)n(-c3ccccc3)c2=O)cc1	i	3.1e-08	-1.0%	16%	i
O=C(Cn1c(CN2CCCCC2)nc2ccccc2c1=O)NCc1ccco1	i	1.7e-09	1.8%	?	i
CCOc1cc(NS(C)(=O)=O)c(OCC)cc1NC(=O)c1cccs1	i	3.8e-09	-0.2%	4%	i
O=C(Cc1ccccc1)Nc1ccccc1CO	i	5.7e-09	-1.3%	1%	i
COc1cc(-c2nnc(-c3cccnc3)o2)cc(OC)c1OC	i	1e-09	1.2%	-1%	i
CCOC(=O)Cc1nnc2c(Nc3ccc(C)cc3)nc3nonc3n12	i	2.8e-08	3.4%	14%	i
CCOC(=O)C1CCCN(C/C(O)=C(\C#N)c2nc(-c3ccccc3)cs2)C1 (stereo not drawn)	i	1e-09	-0.3%	-6%	i
Cn1c(=O)n(C)c2cc(NS(C)(=O)=O)ccc21	i	1e-09	5.1%	-1%	i
CCCCCCNC(=O)Cc1nc2nc(C)cc(C)n2n1	i	2.7e-08	0.2%	25%	i
O=c1[nH]c(Cn2nnc(-c3ccccc3)n2)nc2scc(-c3ccccc3)c12	i	2.6e-08	4.3%	7%	i
C=CCn1c(SCc2c(C)noc2C)nnc1C1COc2ccccc2O1 (stereo not drawn)	i	2.6e-08	1.5%	?	i
Cc1ccc(C)c(C(=O)CSc2n[nH]c(C(C)C)n2)c1	i	1.9e-08	0.0%	17%[11.4 µM]	i
O=C(c1ccco1)N1CCN(CCCCN2C(=O)c3ccccc3C2=O)CC1	i	1e-09	1.0%	1%	i
COc1ccc(CC(=O)n2nc(-c3ccccc3)nc2NCc2ccco2)cc1	i	1e-09	4.6%	21%	i
CCn1c(CC(=O)Nc2ccc(C)cc2)nnc1SCC(=O)N1CCN(c2ccccc2)CC1	i	2.6e-09	-1.5%	-6%	i
COCC(=O)N(C)c1nnc(-c2cnccn2)s1	i	2.9e-08	0.8%	19%	i
CCC1(CC)C(=O)NC(=O)NC1=Nc1cccc(OC)c1	i	9.4e-09	1.1%	1%[11.4 µM]	i
CCCN(CCC)c1nc(C)cc(C(C#N)c2nc3ccccc3o2)n1 (stereo not drawn)	i	2.9e-09	17%	0%	i
CC(C)(C)SCCNC(=O)CN1C(=O)c2ccccc2S1(=O)=O	nt	nt	-0.8%	7%	nt
COc1ccc(N2CCN(CC(=O)Nc3cc4c(cc3C(C)=O)OCO4)CC2)cc1	i	2.9e-08	-2.1%	2%	i
NC1(C(=O)O)CC(C(=O)O)C1 (stereo not drawn)	nt	nt	5.1%&-1.2%	1%&5%	nt

Only AID923 and A488 autofl (4 entries from above):
smiles | AID923 | A488 autofl
COCC(=O)N(C)c1nnc(-c2cnccn2)s1 | 0.8% | i
CCC1(CC)C(=O)NC(=O)NC1=Nc1cccc(OC)c1 | 1.1% | i
CCCN(CCC)c1nc(C)cc(C(C#N)c2nc3ccccc3o2)n1 (stereo not drawn) | 17% | i
CC(C)(C)SCCNC(=O)CN1C(=O)c2ccccc2S1(=O)=O | -0.8% | nt

(cont.)
SMILES	Resorufin fluor	A647 autofl	AID923	TSHR ag	A488 autofl
CCOCCCNC(=O)CN1C(=O)CSc2ccccc21	nt	nt	-1.6%	11%	nt
CCCOP(=O)(c1ccc(N(C)C)cc1)C(O)c1ccccc1OC (stereo not drawn)	i	2.2e-08	0.1%	18%	i
Cc1cc(NC(=O)COc2ncnc3sc(C)c(C)c23)no1	i	2.9e-08	0.1%	12%	i
CC(C(=O)N1CCCCC1)n1sc2ccccc2c1=O (stereo not drawn)	nt	nt	1.6%	15%	nt
Cc1cc(=O)n2nc(-c3ccccc3)sc2c1C#N	i	5.9e-08	-2.7%	-6%	i
CN(C)S(=O)(=O)c1ccc(/C(O)=C2/C(=O)C(=O)N(Cc3cccnc3)C2c2ccco2)cc1 (stereo not drawn)	i	1e-09	1.4%	0%	i
O=C(O)[C@@H]1[C@H](C(=O)O)[C@H]2C(=O)C=C[C@H]1N2Cc1ccccc1	i	3.9e-09	-0.2%[11.5 µM]	-1%[11.4 µM]	i
O=C(O)CCCC(=O)OCCCCc1cccs1	nt	nt	2.0%	2%	nt
CS(=O)(=O)N(Cc1ccco1)Cc1ccccc1Cl	i	2.8e-09	-0.1%	27%	i
CCCOc1ccc(N2C(=O)CC(N3CCN(c4nc5ccccc5s4)CC3)C2=O)cc1 (stereo not drawn)	i	1e-09	-0.3%	-22%	i
CCOC(=O)N1CCN(C(=O)CSc2nnc(CNC(=O)c3c(F)cccc3Cl)o2)CC1	i	1e-09	0.7%	-1%[11.4 µM]	i
COC(=O)CSc1nnc(-c2ccncc2)n1N	i	1e-08	-0.8%	-2%	i

Complete entries, quoted from the list. Screens in order: Resorufin fluor, A647 autofl, AID923, TSHR ag, A488 autofl
Record of O=C(O)[C@@H]1[C@H](C(=O)O)[C@H]2C(=O)C=C[C@H]1N2Cc1ccccc1 : i, 3.9e-09, -0.2%[11.5 µM], -1%[11.4 µM], i
Record of CCOC(=O)N1CCN(C(=O)CSc2nnc(CNC(=O)c3c(F)cccc3Cl)o2)CC1 : i, 1e-09, 0.7%, -1%[11.4 µM], i
Record of Cc1cc(=O)n2nc(-c3ccccc3)sc2c1C#N : i, 5.9e-08, -2.7%, -6%, i
Record of CCOCCCNC(=O)CN1C(=O)CSc2ccccc21 : nt, nt, -1.6%, 11%, nt

Further compounds:
SMILES	Resorufin fluor	A647 autofl	AID923	TSHR ag	A488 autofl
Cc1cccc(Cn2c(N(C)CCO)nc3c2c(=O)[nH]c(=O)n3C)c1	nt	nt	2.9%	?	nt
CCc1nnc(NC(=O)CSc2nnc(-c3ccoc3C)n2CC(C)C)s1	i	5.2e-08	0.0%	-8%	i
COc1cc(C2C(C#N)=C(N)Oc3n[nH]c(-c4ccccn4)c32)cc(OC)c1OC (stereo not drawn)	i	2.3e-08	1.3%	nt	i
CCC(=O)OC1CSc2nc3ccccc3n2C1 (stereo not drawn)	i	1e-09	-0.1%	-5%	i
COC(=O)CNS(=O)(=O)c1ccc(Cc2ccc(S(=O)(=O)NCC(=O)OC)cc2)cc1	i	1e-09	-1.2%	-15%	i
O=C(Nc1ccccc1)c1ccc(S(=O)(=O)NCc2ccco2)cc1	i	1e-09	0.9%	1%	i
Cc1cc(CN2C(=O)c3ccccc3C2=O)no1	i	1.1e-08	0.6%	-14%	i
CCOC(=O)Cc1nc2ccccc2[nH]1	i	3e-09	2.3%	2%	i
O=C(NC1CCCC1)c1cnn2c(C(F)(F)F)cc(-c3ccc4c(c3)OCO4)nc12	i	1e-09	2.5%	?	?
Cc1ccc2[nH]c(=O)c(C(c3nnnn3C(C)(C)C)N(Cc3ccco3)CC3CCCO3)cc2c1 (stereo not drawn)	i	5.6e-08	19%	?	i
CN(C)c1nc2n(c(=O)n1)C(C#N)CS2 (stereo not drawn)	i	1e-09	nt	nt	i
COc1cc(C(=O)N2CCN=C2c2ccccc2)cc(OC)c1OC	nt	nt	-0.7%	-1%	nt
O=C(NCc1ccc2c(c1)OCO2)c1cccc(S(=O)(=O)N2CCOCC2)c1	i	3e-08	-0.9%	4%	i
COC(=O)c1ccc(N2CCN(C)CC2)c(NC(=O)COc2ccc(OC)cc2)c1	i	3.5e-09	-0.9%	-35%[inhibitor]	i
O=C1CC(=O)CC(c2ccccc2Cl)C1	nt	nt	2.3%	4%[11.4 µM]	nt
c1cc2c3c(c1)ccc1cccc(c13)C2	nt	nt	2.6%	?	nt
Cn1c(CN2CCCC2)nc2cc(NC(=O)Nc3ccccc3)ccc21	i	2.5e-09	-1.9%	-3%	i
O=C(NCc1ccco1)c1cnc2ccccn2c1=O	nt	nt	-2.5%	-4%	nt
Cc1cccc2nc(Cn3c(=O)n(CCC(=O)NCc4ccco4)c(=O)c4sccc43)cc(=O)n12	i	2.1e-08	0.5%	17%	i
O=C(CCNS(=O)(=O)c1cccc2nsnc12)N1CCc2ccccc21	i	6.1e-09	0.4%	-9%	i
COc1cccc(C2/C(=C(\O)c3ccc4c(c3)OCCO4)C(=O)C(=O)N2CCN(C)C)c1 (stereo not drawn)	i	3.2e-09	nt	nt	i
Cc1cc(=O)oc(C)c1C(=O)NC12CC3CC(CC(C3)C1)C2	i	2.3e-08	nt	nt	i
Cn1c(=O)c2cn3c(c2n(C)c1=O)C(c1ccccc1)CC(c1ccccc1)=N3 (stereo not drawn)	i	2.1e-09	0.9%	?	i
CN1CCN(CCCNC(=O)c2cc3c(=O)oc4ccccc4c3s2)CC1	i	1e-09	-0.6%	?	i
CCOC(=O)N1CCN(S(=O)(=O)c2cc(Br)cc3c2N(C(=O)CC)CC3)CC1	i	8.2e-09	-0.8%	8%[11.4 µM]	i
COc1ccc(-n2c(=O)c(-c3ccc(Cl)cc3)nc3cncnc32)cc1	i	1.3e-08	3.7%	-7%	i
COc1ccc(CCNC(=O)c2cc(C(C)C)on2)cc1OC	nt	nt	3.6%	3%	nt
O=C(Nc1ccccc1)N1CCC2(CC1)CCN(C(=O)c1cccc(F)c1)CC2	i	1e-09	-0.1%	-5%	i
COc1ccc(C2C(C(=O)NC(C)C)c3ccccc3C(=O)N2C)cc1OC (stereo not drawn)	i	2.9e-09	0.4%	-4%	i
O=C1CCc2cc(S(=O)(=O)N3CCN(c4cccc(Cl)c4)CC3)ccc2N1	i	3e-09	2.0%	1%	i
Cc1ccccc1-c1nc(CS(=O)(=O)CC(=O)NCCCN2CCCC2)c(C)o1	nt	nt	0.0%	12%	nt
Cn1c(=O)c2c(nc(SCC(=O)O)n2Cc2cccc(C(F)(F)F)c2)n(C)c1=O	i	1e-09	0.8%	7%[11.4 µM]	i
O=S(=O)(Nc1cccc2cn[nH]c12)c1ccc(F)cc1	i	1e-09	-1.6%	-4%	i
Cn1cnnc1SCC(=O)N1CCC(Cc2ccccc2)CC1	i	3.1e-09	0.0%	?	i
CC(C)NC(=O)C(C)n1cccc1C(=O)c1ccccc1 (stereo not drawn)	i	8.1e-09	0.1%	0%	i
CCN(CC)CCCNc1cc2n(c(=O)n1)CCc1cc(OC)c(OC)cc1-2	i	1e-09	4.8%	5%	i
Cc1ccc2oc(NC(=O)N3CCOCC3)cc(=O)c2c1	i	4e-09	0.7%	-2%	i
Cc1cc2c(nc1C)CCCCN2C[C@H](C)O/N=C1/[C@H]2O[C@@H]2[C@@H](O)[C@H]2[C@H]1CCn1c(=O)n(-c3ccccc3)c(=O)n12	nt	nt	-2.0%[11.5 µM]	6%[11.4 µM]	nt
CCOC(=O)c1c(NC(=O)c2ccc(Br)o2)sc2c1CCCC2	nt	nt	2.2%	14%[11.4 µM]	nt
N#Cc1ccccc1NC(=O)c1ccccc1OCC(=O)NCc1ccco1	i	4.3e-09	-2.2%	nt	i
COc1cc(-c2nc(-c3cccc(C(F)(F)F)c3)no2)cc(OC)c1OC	i	2.1e-08	0.3%	11%	i
Cc1ccc(-n2ncc(C#N)c2/N=C/N2CCCCCC2)cc1	i	2.2e-08	1.6%	?	i
Cc1noc(C)c1COc1ccc(C(=O)OC(C)C(=O)Nc2ccc(N3CCOCC3)cc2)cc1 (stereo not drawn)	i	4e-08	-2.1%	-1%	i
CC(C)(C)n1ncc2c(=O)n(CC(=O)Nc3ccc4c(c3)OCO4)cnc21	i	1e-09	0.7%	10%	i
CCNC(=O)c1c(C)nc2ccccn12	nt	nt	1.4%	-13%	nt
CC(=O)Oc1c(S(=O)(=O)c2ccccc2)c(C)nn1C(C)(C)C	i	1.5e-08	-5.1%	6%	i

Not all compounds are listed; the hit share may differ from the screen's.
